NPYLR7 ag: mosquito NPYLR7 agonism; AID 1259423; activation, % at 10 µM; actives 0.15% (n = 270,000); HEK293T NPYLR7/Galpha15, GCaMP6s calcium fluorescence; in the data active = activation above about 40%;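 also: 0% = vehicle and 100% = reference agonist at the receptor; some compounds past the cut are filed as inactive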
NPYLR7 ag max-min: recorded beside NPYLR7 ag, whose call it bears; activation, %; measured here: Max-Min RFU normalised activation; some inactives read as strong as hits;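 span of the calcium signal over five minutes; 0% = vehicle and 100% = native peptide agonist; compound fluorescence can raise it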
Numbers without * were called inactive; & = joins results of further samples. These rows are one share of the data. The share of hits here may be higher or lower than overall.

SMILES | NPYLR7 ag | NPYLR7 ag max-min
Cc1cccc(-c2noc(N3CCOCC3)c2CN(Cc2ccc(F)cc2)C(=O)C2CCCC2)c1 | 9 | 13
CC(=O)NC1C(=O)N(CCCOc2ccccc2)c2ccccc21 (stereo not given) | 14 | 19
CCC1=NOC(Cn2cnc(-c3ccccc3)c2CCn2nc(C)cc2C)C1 (stereo not given) | 0 | -2
COc1ccc(CC2(CO)CCN(Cc3nc4ccccc4nc3C)CC2)cc1 | 0 | -4
COc1ccccc1NC(=O)NCCn1nc(-c2ccc(C)cc2)ccc1=O | 9 | 7
Cc1onc(-c2ccccc2)c1C(=O)NCc1ccc(F)cc1 | -3 | -4
COc1ccc(-c2nnc3ccc(OCCNC(=O)c4ccco4)nn23)cc1OC | 0 | 34
Cc1ccccc1Cn1c(=O)c2c(nc3n(CCCN4CCOCC4)c(C)c(C)n23)n(C)c1=O | 5 | 0
NC(=O)c1ccccc1 | 1 | 1
COCCN(Cc1csc(COc2ccccc2OC)n1)C(=O)c1cccc(C)c1 | -9 | 0
Cc1ccc(Nc2nc(N3CCN(Cc4ccccc4)CC3)nc3nccnc23)cc1 | 2 | 7
Cc1ccc(O)c(CN(C)CCCc2c(C)n[nH]c2C)c1 | 6 | 2
NC(=O)C1CCCCC1Nc1ncnc2cc(F)c(F)cc12 (stereo not given) | -23&-5 | -24&-9
Cc1ccc(NC(=O)C2CSCN2C(=O)c2ccnc(N(C)C)c2)cc1C (stereo not given) | 1 | -10
COc1cc2oc(-c3ccc(O)cc3O)cc2c(OC)c1CC=C(C)C | -13 | -17
O=C(NCCc1ccc(O)cc1)c1ccc(CN2C(=O)CCC2=O)cc1 | -2 | -1
COc1cc(CNCCSc2nccn2C)ccc1OCC(O)CN1CCC(O)CC1 (stereo not given) | -1 | -4
CCOCCCNC(=O)c1cc(NC(=O)c2ccc([N+](=O)[O-])cc2)ccc1N1CCCC1 | -1 | 13
COc1ccc(-c2cc(C)nc(N)n2)c(-n2nc(C)cc2C)c1 | 8 | 7
CC(=NN=C(N)N)c1ccc(F)cc1 | -4 | -6
COc1ccc(-c2cn[nH]c2-c2ccc(OCCN3CC(C)OC(C)C3)cc2O)cc1OC (stereo not given) | -1 | -4
CCCCC(c1cccnc1)N(C)C(=O)c1cn2c(n1)CNCC2 (stereo not given) | -2 | -2
COc1ccc(S(=O)(=O)N2CCC(Cc3ccccc3)CC2)cc1N1CCN(C(=O)C2CCC2)CC1 | 24 | 12
Cc1nnc(SCC(=O)NN2C(=O)NC3(CCCCC3)C2=O)n1C | 1 | 1
Cc1cccn2c(Cc3nn4c(C(C)C)nnc4s3)cnc12 | 5 | 1
Additional results
SMILES | NPYLR7 ag | NPYLR7 ag max-min
C=CCOc1c(OC)ccc2c1CN(C)C(=O)CCN2C(=O)c1ccno1 | 0 | 4
O=C(Nc1cccc(-c2cccc(-c3ccc(F)cc3)n2)c1)c1ccc(Cl)nc1 | -7 | -12
COc1ccc(C(=O)Nc2ccccc2)cc1S(=O)(=O)NCc1ccccc1 | -11 | -18
COc1cccc(C(CN2CCN(C(=O)COCc3ccccc3)CC2)OCc2ccc(C)cc2)c1 (stereo not given) | 5 | 0
CC(C)CN(Cc1ccccc1C#N)Cc1cccn1Cc1cccc(C(F)(F)F)c1 | 6 | 9
COc1ccc(C2CCCN2c2ccc3nnnn3n2)c(OC)c1 (stereo not given) | -3 | -8
CC(C)Cc1noc(CN(C)C(=O)c2ncc[nH]2)n1 | 12 | 4
O=C(NC1Cc2ccccc2C1)c1ccccc1C1CCNC1 (stereo not given) | 9 | 7
O=C(Nc1cccc(-c2cccc(Cl)c2)c1)C1CCN(C(=O)C2CCOC2)CC1 (stereo not given) | -1 | -2
CCC(CC)NC(=O)Cc1csc2nc(C34CC5CC(CC(C5)C3)C4)cn12 | 6 | 2
O=C1OCCC1Sc1ccc2ccccc2n1 (stereo not given) | 7 | 2
Cc1cc(F)ccc1NC(=O)C1CCN(c2nccs2)CC1 | 6 | 2
COc1ccc(CCNC(=O)c2ccc3oc(-c4cccc(F)c4)nc3c2)cc1 | 18 | 9
CN(Cc1ccccc1)c1cc(C(F)(F)F)nc(SCc2ccc(C(=O)O)cc2)n1 | 7 | 20
O=C(Nc1c(F)c(F)c(F)c(F)c1F)N[C@H](Cc1ccccc1)C(=O)N1CCC(C(=O)N2CCOCC2)CC1 | 26 | 31
CCN(CC)c1cc(-c2cccc(O)c2)nc(N)n1 | -5 | -7
CC(C)c1nnc(SCC(N)=O)c2c1cnn2-c1ccc(F)cc1 | -5 | -14
CC(C)COc1nc(-c2cccc(C(F)(F)F)c2)n(-c2ccc(N)cc2)n1 | -17 | -16
C=CCNCc1nc2scc(-c3ccc(C)cc3C)c2c(=O)[nH]1 | 0 | 9
Cc1[nH]c(=O)[nH]c(=O)c1CCC(=O)Nc1ccc(C(C)C)cc1 | -6 | -13
Cc1ccccc1C1c2ccsc2CCN1C(=O)CN(C(=O)c1ccc(C(F)(F)F)cc1)C1CCCCC1 (stereo not given) | 2 | 5
Cc1[nH]n(-c2nc(-c3ccc(Br)cc3)cs2)c(=O)c1N=Nc1ccc([N+](=O)[O-])cc1 | 0 | -5
N#CC1C(=O)Nc2nc(N3CCOCC3)[nH]c(=O)c2C1c1ccccc1 (stereo not given) | -1 | -5
CC(NC(=O)C1COC2(CCN(C(=O)c3ccccc3Cl)CC2)N1C(=O)c1cccc(F)c1)c1ccccc1 (stereo not given) | 21 | 32
O=C(NCCn1nc(-c2ccco2)ccc1=O)c1ccccc1C(F)(F)F | 1 | -2
Carrying on:
SMILES | NPYLR7 ag | NPYLR7 ag max-min
Cc1ccc(Cc2nc(CSc3ccc(C)cc3C)cs2)cc1 | 4 | 3
O=C(CNC(=O)c1cccnc1)N=Nc1c(O)[nH]c2ccc([N+](=O)[O-])cc12 | -10 | -17
CC(=O)N(Cc1ccccc1)[C@@H]1C[C@@H]2CO[C@H](c3ccccc3)C[C@@H]2C1 | 5 | 13
Cc1nn(CC(=O)NC(C)C)c(=O)c2cc3occc3n12 | 2 | -1
Cc1ccc(C)c(S(=O)(=O)n2ncc(C#N)c2N)c1 | 0 | -3
CC1(Cc2ccc(Cl)cc2)C(=O)Nc2ccc(Cl)cc21 (stereo not given) | 3 | 2
CCS(=O)(=O)N(C)C(=O)c1cc(C)n(-c2cccc(OC)c2)c1C | -4 | -5
c1cn(-c2ccc(Oc3ccc4c(C5CC5)noc4n3)cc2)cn1 | 9 | 7
COCC(=O)N1CCN(c2ccccc2-c2ccccc2)C(=O)C1C (stereo not given) | -2 | 10
CC(C)Nc1ccc(C(=O)NC2CCN(Cc3ccccc3)C2)cn1 (stereo not given) | -8 | -13
COc1cccc(CNC(=O)C2CCN(C(=O)[C@@H]3CCCN3C(=O)Nc3ccccc3OC(F)F)CC2)c1 | 0 | 17
O=C(C(O)c1ccccc1Cl)N1C[C@@H]2[C@@H]3CC[C@@H](C3)[C@@H]2C1 (stereo not given in full) | 7 | 6
O=S(=O)(O/N=C1/CCCc2sc(Cl)cc21)c1ccccc1 | -1 | -2
c1cnc2c(-c3nccn3CCCn3ccnc3)cccc2c1 | 6 | 4
O=C(Cc1ccccn1)NCc1nc(-c2cccc(F)c2)c(-c2ccccn2)[nH]1 | 0 | 1
O=C1C2C3C=CC(C3)C2C(=O)N1c1ccc(F)cc1F (stereo not given) | -11 | -16
CC(=O)N1CCc2c(sc(NC(=O)Cc3ccc4c(c3)OCO4)c2C#N)C1 | -6 | -6
Cc1ccccc1-c1ncc(CN2CCCC(Nc3ccccc3)C2)cn1 (stereo not given) | 2 | 2
CSc1ncc(CNCc2ccco2)c(N2CCN(c3ccccc3F)CC2)n1 | 1 | -3
C=CCOC(=O)C1C(C)=NC2=C(C(=O)CCC2)C1c1cccc(Cl)c1 (stereo not given) | 1 | 1
c1ccc2c(CN3CCN(Cc4c[nH]c5ccccc45)CC3)c[nH]c2c1 | 20 | 11
COc1ccccc1N1CCN(C2CCCN(Cc3nc4ccccc4n3C)C2)CC1 (stereo not given) | 9 | 9
O=C(NCC(=O)N1CCc2ccc(Cl)cc21)OCC(F)(F)F | 0 | -3
CCOC(=O)Cc1c(C)nc2ncnn2c1N1CCN(C(=O)C2C[C@H]2c2ccccc2)CC1 (stereo not given in full) | 22 | 14
CC(C)(C)c1cc2oc(=O)c(I)c(O)c2c(=O)n1-c1ccccc1 | -3 | -4
Next compounds follow.
SMILES | NPYLR7 ag | NPYLR7 ag max-min
CCOC(=O)Cn1c(C2CC(=O)N(C(C)C)C2)nc2ccccc21 (stereo not given) | 2 | 8
CC(C)C(NC(=O)CSc1nnnn1CC1CCCO1)c1ccc2c(c1)OCCCO2 (stereo not given) | 0 | -6
Cc1ccc(F)c(S(=O)(=O)NC(=O)C2(C)CCN2C(=O)Cc2ccccc2Cl)c1 (stereo not given) | 9 | 6
O=C(c1cnc(CN2CCCC2)s1)N1CC(c2cccnc2)C1 | 12 | 5
CCCCC1C(=O)N(C)CCN1Cc1nc[nH]c1C (stereo not given) | 1 | 2
CCn1cc(C(=O)N2CCN(C(C)=O)CC2)c2nn(-c3ccccc3)c(=O)c-2c1 | 12 | 10
Cn1c(-c2ccc(CN3CCCC3c3ccccn3)o2)nc2ccccc21 (stereo not given) | 21 | 5
Cc1ccc(CN2CCN(Cc3nc(-c4ccccc4)cs3)CC2CCO)o1 (stereo not given) | 10 | 1
Cc1ccc(CC(NC(=O)c2sc3cc(F)ccc3c2Cl)c2ccccc2)cc1 (stereo not given) | -6 | -8
CC(=O)c1ccc(C(=O)N2CCCC(C(=O)c3ccc(Oc4ccccc4)cc3)C2)cc1 (stereo not given) | 0&14 | -1&6
COCCN(Cc1cnn(C)c1)C(=O)c1ccccc1OC(F)F | 27 | 17
Cc1nc(SCc2ccc(C(=O)N3CCN(C)CC3)cc2)nc(N2CCOCC2)c1C | 5 | 5
C=CCN(Cc1ncc[nH]1)Cc1ccccc1OC | -8 | -12
COc1cc2nc(-c3ccc(C)o3)cc(C(=O)NCCc3cccs3)c2cc1OC | -7 | -12
CCOc1ccc(OCC(O)CN2C(=O)CC(c3ccccc3)C2=O)cc1 (stereo not given) | 7 | 0
COCCNc1oc2c(c1-c1ccc(Br)cc1)c(=O)n(C)c(=O)n2C | 1 | 0
Cc1ccc2[nH]c(C(=O)NCC(=O)NC(C)(C)C)c(Cl)c2c1 | 19 | 31
CC1(C)Cc2c(-c3ccccc3)c(-c3ccc(Cl)cc3)c(CC(=O)O)n2C1 | -5 | -12
Cc1nn(C)c(Cl)c1/C=C/C(=O)NC(C)(C)CC(C)(C)C | 8 | 7
COCCN(Cc1ccc(OS(C)(=O)=O)cc1)C(=O)Nc1c(C(C)C)cccc1C(C)C | 19 | 26
COc1ccc(-c2noc(-c3c(SC)nn(CC(=O)NCc4ccccc4)c3N)n2)cc1 | 2 | -4
Cc1ccc(S(C)(=O)=O)cc1NC(=O)c1cc2c(s1)CCCC2 | 2 | 1
N#Cc1ccc(C(=O)N(CCN2CCOCC2)c2nc3ccc(F)cc3s2)cc1 | 9 | 7
O=C(NCc1ccc(F)cc1)c1cnn2c1NC(c1cccs1)CC2C(F)(F)F (stereo not given) | 11 | 4
COc1ccc(N2CCN(c3cc(C(C)(C)C)nc(SCc4cccc(C(=O)O)c4)n3)CC2)cc1 | 8 | 11

Overlap with the part before: 2 entries, followed by the next part.
SMILES | NPYLR7 ag | NPYLR7 ag max-min
O=C(NCc1ccc(F)cc1)c1cnn2c1NC(c1cccs1)CC2C(F)(F)F (stereo not given) | 11 | 4
COc1ccc(N2CCN(c3cc(C(C)(C)C)nc(SCc4cccc(C(=O)O)c4)n3)CC2)cc1 | 8 | 11
Cc1cc(NC(=O)c2ccc(S(=O)(=O)N3CCCC3)cc2)n(-c2nc3ccc(F)cc3s2)n1 | -9 | -13
Cc1ccc(C)c(NC(=O)OCC(C)(C)NC(=O)COc2ccccc2)c1 | -12 | -13
CC(C)Cc1ncc2c(n1)CN(c1nnnn1C(C)c1ccccc1)C2 (stereo not given) | 16 | 10
CS(=O)(=O)/C(C#N)=C/c1cc(Cl)c2c(c1)OCO2 | -1 | -2
Cc1nc(-c2cccnc2)sc1-c1ccc(SCC(=O)Nc2ccc(F)c(F)c2)nn1 | 3 | 11
COc1ccccc1OCc1cc(C(=O)N(C)C2Cc3ccccc3C2)n[nH]1 | -2 | 0
CCc1cn[nH]c1C1CCCN(C(=O)c2cnc(NC(C)C)nc2)C1 (stereo not given) | 0 | 8
Cc1ccn2c(CCNC(=O)c3ccc(Cl)s3)cnc2c1 | 6 | 8
O=C(CNC(=O)c1ccccc1Cl)NNC(=O)c1cccc(Cl)c1 | 7 | 4
Cc1ccc(C)c(N=C2NC(=O)/C(=C\c3csnn3)S2)c1 | 6 | 1

Among those listed so far, 15 contain an NH in an aromatic ring:
SMILES | NPYLR7 ag | NPYLR7 ag max-min
Cc1ccc(O)c(CN(C)CCCc2c(C)n[nH]c2C)c1 | 6 | 2
COc1ccc(-c2cn[nH]c2-c2ccc(OCCN3CC(C)OC(C)C3)cc2O)cc1OC (stereo not given) | -1 | -4
CC(C)Cc1noc(CN(C)C(=O)c2ncc[nH]2)n1 | 12 | 4
C=CCNCc1nc2scc(-c3ccc(C)cc3C)c2c(=O)[nH]1 | 0 | 9
Cc1[nH]c(=O)[nH]c(=O)c1CCC(=O)Nc1ccc(C(C)C)cc1 | -6 | -13
Cc1[nH]n(-c2nc(-c3ccc(Br)cc3)cs2)c(=O)c1N=Nc1ccc([N+](=O)[O-])cc1 | 0 | -5
N#CC1C(=O)Nc2nc(N3CCOCC3)[nH]c(=O)c2C1c1ccccc1 (stereo not given) | -1 | -5
O=C(CNC(=O)c1cccnc1)N=Nc1c(O)[nH]c2ccc([N+](=O)[O-])cc12 | -10 | -17
O=C(Cc1ccccn1)NCc1nc(-c2cccc(F)c2)c(-c2ccccn2)[nH]1 | 0 | 1
c1ccc2c(CN3CCN(Cc4c[nH]c5ccccc45)CC3)c[nH]c2c1 | 20 | 11
CCCCC1C(=O)N(C)CCN1Cc1nc[nH]c1C (stereo not given) | 1 | 2
C=CCN(Cc1ncc[nH]1)Cc1ccccc1OC | -8 | -12
Cc1ccc2[nH]c(C(=O)NCC(=O)NC(C)(C)C)c(Cl)c2c1 | 19 | 31
COc1ccccc1OCc1cc(C(=O)N(C)C2Cc3ccccc3C2)n[nH]1 | -2 | 0
CCc1cn[nH]c1C1CCCN(C(=O)c2cnc(NC(C)C)nc2)C1 (stereo not given) | 0 | 8

Screens from PubChem.
